Screening data: PubChem, Johns Hopkins Ion Channel Center
KCNQ2 pot: potentiators of rat KCNQ2 potassium channel. O88943. CHO-K1 KCNQ2, FluxOR thallium flux fluorescence; hits give high values. B-score at 10 µM. actives 0.54% (n = 310,000);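 active = fluorescence ratio B-score at least 3 SD of library B-scores, with initial fluorescence B-score within 3 SD, cut at about 5.3 in these data; same plate scores as AID 2156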;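 also: B-score of peak minus minimum over baseline fluorescence ratio after K+ and Tl+ stimulus; positive B-score means potentiation of KCNQ2 with more thallium influx and brighter signal; only the inactives scoring about 0 or higher are listed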
Target sequence (O88943 whole entry, looked up): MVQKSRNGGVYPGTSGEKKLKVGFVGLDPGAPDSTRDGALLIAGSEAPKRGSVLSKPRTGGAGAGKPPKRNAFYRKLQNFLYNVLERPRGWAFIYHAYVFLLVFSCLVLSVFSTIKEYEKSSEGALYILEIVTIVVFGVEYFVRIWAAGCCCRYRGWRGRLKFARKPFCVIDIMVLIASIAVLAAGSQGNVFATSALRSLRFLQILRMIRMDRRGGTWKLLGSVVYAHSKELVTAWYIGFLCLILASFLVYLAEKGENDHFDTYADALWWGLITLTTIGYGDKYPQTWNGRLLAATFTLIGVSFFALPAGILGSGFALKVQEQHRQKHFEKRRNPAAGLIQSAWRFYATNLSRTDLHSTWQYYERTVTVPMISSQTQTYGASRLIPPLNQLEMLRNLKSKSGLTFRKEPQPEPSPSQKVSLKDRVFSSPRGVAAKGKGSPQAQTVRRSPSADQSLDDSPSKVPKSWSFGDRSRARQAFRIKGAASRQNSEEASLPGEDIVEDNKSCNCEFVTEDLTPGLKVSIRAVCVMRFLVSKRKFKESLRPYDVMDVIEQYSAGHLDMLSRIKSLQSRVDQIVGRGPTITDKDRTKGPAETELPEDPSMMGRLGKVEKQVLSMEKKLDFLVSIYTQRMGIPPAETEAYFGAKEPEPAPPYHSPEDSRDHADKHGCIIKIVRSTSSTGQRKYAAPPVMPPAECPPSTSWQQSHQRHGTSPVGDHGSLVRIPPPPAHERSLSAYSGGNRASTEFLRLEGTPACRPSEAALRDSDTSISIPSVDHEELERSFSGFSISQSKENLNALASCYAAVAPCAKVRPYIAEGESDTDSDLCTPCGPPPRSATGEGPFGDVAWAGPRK
KCNQ2 pot baseline: also measured in KCNQ2 pot; calls as there; B-score; compound at 10 µM; measured here: initial fluorescence intensity artifact check;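 brightness before thallium and not channel activity; 0 = typical well and far values either way flag optical interference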
An asterisk follows results filed as active. This is a subset, so the mix of outcomes need not match the whole.

nr	molecule	KCNQ2 pot	KCNQ2 pot baseline
1	OC[C@H]1O[C@@H]2O[C@H]3[C@H](O)[C@@H](O)[C@@H](O[C@H]4[C@H](O)[C@@H](O)[C@@H](O[C@H]5[C@H](O)[C@@H](O)[C@@H](O[C@H]6[C@H](O)[C@@H](O)[C@@H](O[C@H]7[C@H](O)[C@@H](O)[C@@H](O[C@H]1[C@H](O)[C@H]2O)O[C@@H]7CO)O[C@@H]6CO)O[C@@H]5CO)O[C@@H]4CO)O[C@@H]3CO	1.22	-2.12
2	COc1ccc(CNC(=O)CCS(=O)(=O)c2ccc3c(c2)CC(C)N3C(=O)C2CC2)cc1 (stereo not given)	0.42	2.05
3	Cc1cccc(NC(=O)c2n[nH]c([N+](=O)[O-])c2Br)c1C	0.23	1.64
4	COC(=O)C1(C)CCC(C(=O)Nc2ccccc2)C1(C)C (stereo not given)	0.36	-0.57
5	CC1CCN(S(=O)(=O)c2ccc(NC(=O)Cn3nnc(-c4ccccc4)n3)cc2)CC1	1.36	-1.33
6	CCc1ccccc1N/C(=N\S(=O)(=O)c1ccccc1)C(F)(F)F	0.05	-0.55
7	Cc1ccc(NC(=O)CS(=O)CC(=O)Nc2ccc3c(c2)OCO3)cc1Cl (stereo not given)	0.11	0.01
8	CN1CCN(S(=O)(=O)c2ccc(Sc3nc4ccccc4[nH]3)c3nsnc23)CC1	0.76	0.02
9	O=C(NC12CC3CC(CC(C3)C1)C2)c1ccc(Br)o1	0.39	-0.75
10	CC(C)NC(=O)C1CCCN(S(=O)(=O)c2cccs2)C1 (stereo not given)	0.17	-1.68
11	COc1ccc(CC(=O)Nc2ccc(C(=O)Nc3ccccc3C(=O)O)cc2)cc1OC	0.95	-0.74
12	Cn1c(=O)[nH]c(=O)c2c1nc(N1CCCCCC1)n2CCSc1nc2ccccc2o1	0.9	-2.2
13	CC(c1ccncn1)N(C)C(=O)c1ccc2oc(Cc3ccccc3)nc2c1 (stereo not given)	0.39	0.18
14	COC(=O)c1ccc(Cn2nc(C)c([N+](=O)[O-])c2C)o1	1.29	-2.32
15	COc1ccccc1CC(=O)Nc1ccc2c(c1)C(=O)NC2=O	0.99	0.92
16	N#Cc1ccccc1NC(=O)COC(=O)CCc1ccc(S(=O)(=O)N2CCCCC2)cc1	0.78	-1.91
17	COc1ccc(-n2c(C)cc(/C=C3\C(=O)NN(c4ccccc4)C3=O)c2C)cc1	0.15	-0.86
18	COc1ccccc1C(=O)NC(=O)COC(=O)CN1C(=O)NC2(CCCCC2C)C1=O (stereo not given)	0.28	1.91
19	CCOc1ccc(S(=O)(=O)N(C)CC(=O)NCc2ccc3c(c2)OCO3)cc1	0.01	0
20	Cc1cc(C)n(CCCNC(=O)c2ccc(C)c(S(=O)(=O)N3CCOCC3)c2)n1	0.61	-1.99
21	COc1ccc(NC(=O)c2ccco2)cc1NC(=O)COc1ccccc1	0.62	-0.99
22	Cc1ccc(S(=O)(=O)NC(C)(C)CN2CCCCC2)cc1	0.03	-0.06
23	OCCN1CCN(C(=S)Nc2ccc(Oc3ccccc3)cc2)CC1	0.26	0.17
24	COc1ccc(CCNS(=O)(=O)c2ccc(C3CNC(=O)C3)cc2)cc1OC (stereo not given)	0.06	0.49
25	C/C(=N\N=C(/N)SC1CC(=O)N(c2ccc(Cl)cc2)C1=O)c1cccs1 (stereo not given)	0.78	0.8
26	CC(=O)c1c(C)[nH]c(-c2ccccc2)c1C	1.7	0.2
27	Nc1nnc(CC(=O)N/N=C\c2ccc(-c3cccc(Cl)c3)o2)s1	0.75	-0.35
28	O=C(CSc1nnc(NC(=O)C2CCC2)s1)NC1CC1	0.48	-0.79
29	ClC(Br)=C(n1cnc2ccccc21)n1cnc2ccccc21	0.63	-1.02
30	COc1ccc(-c2nnc(Nc3nc4c(OC)cccc4s3)o2)c(OC)c1	0.68	0.5
31	CCNC(=S)Nc1cc(OCC)c(NC(=O)c2cccs2)cc1OCC	0.02	1.56
32	Cc1ccc(S(=O)(=O)N(CC(O)CN2CCCCC2)c2cccc([N+](=O)[O-])c2)cc1 (stereo not given)	0.34	0.46
33	O=C(NCCc1ccc(F)cc1)c1coc(=O)c(Br)c1	0.45	0.85
34	O=C(O)CCC(=O)Nc1ccc(C(=O)N2CCCCC2)cc1	0.37	0.97
35	CCC1Oc2ccccc2N(CC(=O)NCCCN2CCCCC2C)C1=O (stereo not given)	0.42	-0.11
36	Cc1ccc(S(=O)(=O)Oc2cccc(/C=N/n3cnnc3)c2)cc1	0.88	-0.9
37	CCc1ccccc1NC(=O)CSc1nnc(CCNC(=O)OC(C)(C)C)o1	0.41	-0.03
38	O=C(NN1CC(C(=O)OCc2ccc(Cl)cc2Cl)CC1=O)c1ccccc1 (stereo not given)	19*	0.33*
39	COCCCNC(=O)CCc1nc(-c2ccccc2)no1	0.16	-0.45
40	Cc1ccn2c(=O)nc(SCC(=O)N3CCN(c4ccccc4)CC3)nc2c1	0.23	0.26
41	N#Cc1c(N)nc(SCc2ccccc2)c(C#N)c1-c1ccco1	0.2	-1.83
42	O=C(COc1ccccc1)Nn1cnc2ccccc21	1.29	0.11
43	COCc1cc(C)nc(N/N=C/c2ccc(Cl)c(Cl)c2)c1C#N	1.26	0.31
44	CC1CCN(C(=O)Oc2ccccc2)CC1	0.11	-0.94
45	O=C(O)c1ccc(NC(=O)c2ccccc2NC(=O)c2ccccc2Br)cc1	0.16	0.43

Compound profiles (already shown). Values in the order: KCNQ2 pot | KCNQ2 pot baseline
CC(C)NC(=O)C1CCCN(S(=O)(=O)c2cccs2)C1 (stereo not given) as listed: 0.17 | -1.68
Cn1c(=O)[nH]c(=O)c2c1nc(N1CCCCCC1)n2CCSc1nc2ccccc2o1 as listed: 0.9 | -2.2
Cc1ccc(NC(=O)CS(=O)CC(=O)Nc2ccc3c(c2)OCO3)cc1Cl (stereo not given) as listed: 0.11 | 0.01
COc1ccc(CNC(=O)CCS(=O)(=O)c2ccc3c(c2)CC(C)N3C(=O)C2CC2)cc1 (stereo not given) as listed: 0.42 | 2.05

Next compounds follow.
nr	molecule	KCNQ2 pot	KCNQ2 pot baseline
46	Cc1ccccc1Oc1ccc(-c2nc(N)nc(N)n2)cc1	2.17	-0.49
47	O=C(Nc1ccnn1C1CCN(C(=O)c2cc(Cl)ccc2F)CC1)C1CCOC1 (stereo not given)	0.07	-1.26
48	COc1ccc(CN2CCOCCOCCOCCOCC2)cc1	0.02	0.02
49	CNC(=O)COC(=O)/C=C/c1ccco1	0.03	0.12
50	Cc1cccc(NC(=O)C2CCCN(S(=O)(=O)c3ccc4c(c3)oc(=O)n4C)C2)c1 (stereo not given)	0.02	-0.53
51	CCCCCCCCCC(=O)N/N=C/c1ccc(C)s1	5.11	0.43
52	CC(C)C(NC(=O)c1ccc(F)cc1)C(=O)OCC(=O)N1CC(=O)Nc2ccccc21 (stereo not given)	2.98	-0.01
53	CCOC(=O)C1=C(C)NC2=C(C(=O)CC(C)(C)C2)C1c1cccc(C)n1 (stereo not given)	0.06	2.41
54	CC1(C)CC(=O)C=C(NNC(=O)C2CCCCC2)C1	0.18	0.72
55	O=C(Nc1nnc(Cc2ccccc2)s1)c1cnccn1	0.06	-0.81
56	CS(=O)(=O)c1cccc(NC(=O)C2CC2)c1	0.96	1.24
57	O=C1COc2ccc(S(=O)(=O)Nc3ccc(F)cc3)cc2N1	0.79	0.34
58	N#C/C(=C\c1cccs1)C(=O)NCc1ccccc1	0.99	0.62
59	Cc1cc(=O)[nH]c2c(C)cc(S(=O)(=O)NCc3ccccc3)cc12	0.93	0.96
60	COc1ccc(CCOC(=O)c2ccc(N)c([N+](=O)[O-])c2)cc1	1.52	1.28
61	CC(=O)OC(C(=O)N1CCN(c2ccccc2F)CC1)c1ccccc1 (stereo not given)	0.02	0.38
62	CSc1nnc(-c2ccc(C(F)(F)F)nc2C)o1	0.92	0.04
63	O=c1nc(-c2ccccc2)cn[nH]1	0.87	1.14
64	OCCC1CN(C2CSCCSC2)CCN1Cc1ccccc1 (stereo not given)	0.06	1.54
65	Cc1ccc(S(=O)(=O)NCCCNc2ccc([N+](=O)[O-])cc2)cc1	1.37	-0.45
66	O=C(NCc1cccs1)c1cccnc1Cl	0.37	-1.58
67	Cc1ccccc1NC(=O)C1COc2ccccc2O1 (stereo not given)	0.01	3.38
68	COc1ccc(Cc2nnc(SCc3ccc([N+](=O)[O-])cc3)o2)cc1	0.19	-0.09
69	COCCN(C(=O)COC(=O)CCn1c(C)csc1=O)c1c(N)n(Cc2ccccc2)c(=O)[nH]c1=O	0.12	-0.89
70	COC(=O)C1CSC(C(=O)OC)N1C(=O)Nc1c(C)cccc1C (stereo not given)	1.06	0.39
71	Cc1c(C(=O)NCc2ccc(F)cc2)oc2ccc(S(=O)(=O)N3CCOCC3)cc12	1.84	0.32
72	CN(Cc1ccccc1)S(=O)(=O)c1ccc(Cl)c(C(=O)OCC(N)=O)c1	0.56	1.01
73	CN(C)S(=O)(=O)c1ccc(N2CCCC2)c(C(=O)Nc2cccc(F)c2)c1	2.4	0.01
74	O=C(COC(=O)CNC(=O)c1ccco1)Nc1ccc(Cl)cn1	0.41	1.25
75	COc1cc2c3nnc(-c4ccccc4)c-3cn(Cc3ccc(F)cc3)c2cc1OC	0.03	-2.38
76	Cc1nc2c(Br)c3nc(C(F)(F)F)[nH]c3c(Br)c2[nH]1	0.72	-0.02
77	Cc1c(C(=O)Nc2nnc(SCc3ccccc3Cl)s2)cccc1[N+](=O)[O-]	1.61	-0.36
78	Cc1ccc(NC(=O)NCC(c2ccccc2)N(C)C)cc1 (stereo not given)	2.17	0.36
79	O=C(CSc1nc2ccc(NC(=O)CSc3nnnn3-c3ccccc3)cc2s1)Nc1ccccc1	0.07	-0.75
80	CCn1ncc(Br)c1C(=O)Nc1nccs1	0.38	1.32
81	O=c1[nH]c(/C=C/c2ccc(OC(F)F)cc2)nc2c1cnn2-c1ccccc1	0.1	0.46
82	Cc1cc[n+](CC(=O)Nc2cc(C(F)(F)F)ccc2Cl)cc1	0.71	-1.53
83	CCOC(=O)c1cnn(Cc2ccccc2)c1N	0.54	0.92
84	O=C(NCCc1ccccc1)C1CC1	1.15	-0.75
85	CN(C)c1nc(SCC(=O)Nc2ccccc2)nc(N2CCOCC2)n1	6.36*	-0.78*
86	COc1ccc(N=Cc2c(O)c3ccccc3oc2=O)cc1	1.07	-1.01
87	COc1ccc(C)cc1NC(=O)Nn1cnnc1	1.16	-0.23
88	O=C(NCCc1ccccc1)c1ccc(CS(=O)Cc2cccc(Cl)c2)o1 (stereo not given)	0.33	0.11
89	COc1ccccc1NC(=O)COc1ccc(C(=O)OCC(=O)NC(C)(C)C)cc1OC	1.47	-0.21
90	CCOC(=O)C1CCN(C(=O)c2cn(C)c(=O)c3cc(OC)c(OC)cc23)CC1	2.58	0.03
91	COc1ccccc1/C=N/NC(=O)C(=O)N1CCN(c2ccccc2OC)CC1	1.26	-0.88
92	COc1ccc(OCCNC2CCCC2)cc1	1.11	-1.3
93	CC1Cc2ccccc2N1Cc1nc2cc(C(F)(F)F)ccc2c(=O)[nH]1 (stereo not given)	0.87	0.71
94	O=C(Nc1ccc2c(c1)OCCO2)C1CCN(S(=O)(=O)Cc2ccccc2)CC1	0.08	-0.08
95	O=C(NNC(=S)Nc1ccccc1)c1ccc(O)cc1	1.36	0.32
96	FCCCOc1ccc(-c2nccc(-c3ccc(F)cc3)n2)cc1	0.06	-0.1
97	CN1C(=O)NC(NC(=O)c2cccs2)(C(F)(F)F)C1=O (stereo not given)	1.29	-1.34
98	Cn1c(=Nc2ccccc2)sc2ccccc21	0.15	0.21
99	COc1ccc(S(=O)(=O)Nc2cccc(SC)c2)cc1OC	0.34	1.61
100	Cc1cc(SCC(=O)c2cccs2)nc2c(C)cccc12	1.26	0.38
101	O=C(NC1CC1)C1=C[C@H](c2ccc3c(c2)OCO3)C[C@H](OCc2ccc(CO)cc2)O1	0.66	-0.9
102	CC(C)(C)c1ccc(S(=O)(=O)Nc2noc3ccccc23)cc1	2.2	1.82
103	COc1nc(OCC#N)nc(N(C)C)n1	0.15	0.52
104	O=C(CSc1n[nH]c(=O)n1-c1ccccc1)Nc1ccccc1	0.04	0
105	CCCCn1c(N)c(N(CC(C)C)C(=O)c2cc(S(=O)(=O)N3CCOCC3)ccc2Cl)c(=O)[nH]c1=O	0.8	-0.58

Going on with the list:
nr	molecule	KCNQ2 pot	KCNQ2 pot baseline
106	O=C(NCc1cc(C(F)(F)F)ccc1F)C1CCC(=O)N(C2CCCCCC2)C1 (stereo not given)	1.06	-0.57
107	Cc1ccc(NS(=O)(=O)c2cn(C)c(=O)n(C)c2=O)cc1C	1.99	-0.33
108	CN(CC(=O)Nc1cccnc1Cl)S(=O)(=O)c1ccc(Cl)cc1	0.34	0.95
109	Cc1cccc(C)c1NC(=S)N(CCN(C)C)C(C)c1cccnc1 (stereo not given)	0.2	1.56
110	CCOC(=O)C1=C(CS(=O)(=O)c2ccccc2)NC(=O)NC1c1ccc(O)c(OC)c1 (stereo not given)	0.02	-0.08
111	COc1ccccc1OCC(=O)NNC(=O)c1ccoc1C	0.46	-0.86
112	COc1ccc(S(=O)(=O)NNc2nc(C)cc(C)n2)cc1Br	1.01	-0.86
113	CCN(CC)c1ccc(CN2CCCCCC2)cc1	0.21	1.26
114	O=C(NCCS(=O)(=O)c1ccc(Br)cc1)c1ccc(Cl)cc1Cl	0.15	-1.17
115	O=S(=O)(Nc1ccc2ccccc2n1)c1ccccc1Cl	2.01	-1.21
116	C/C(=N\NC(=O)Cc1ccccc1)c1ccc(Cl)s1	0.63	-1.14
117	O=C(Nc1ccc2c(c1)OCO2)c1cnn2cccnc12	0.3	0.1
118	CCOC(=O)c1c(-n2cnnn2)sc2c1CCCC2	0.05	-2.68
119	O=C1CSC(=S)N1/N=C/c1cc(Br)ccc1O	4.82	0.95
120	O=C(NCC(c1ccco1)N1CCCC1)c1cccc(S(=O)(=O)Nc2ccc(Br)cc2)c1 (stereo not given)	0.45	-0.03
